RN4220 kill: S. aureus RN4220 growth inhibition | AID 1259311 | inhibition, % (test concentration not listed) | 330,000 tested, 0.33% active | OD600, 16 h;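 active = z-score of -3 or lower and OD600 up to 0.18 on both plates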;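 also: plate controls were untreated cells for no effect and reference antibiotic for full effect; stock transfer was 100 nL into about 80 µL; one replicate is shown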
Autofluor counter: counter-screen for toxin protease inhibitors: compound fluorescence; compound autofluorescence counterscreen, microsphere flow cytometry; stronger effect = higher value; fluorescence intensity (test concentration not listed); 360,000 tested, 3.1% active; AID 624483;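 active = at least 3 SD above the mean of all compounds, about 16000 in these data; inconclusive = too few beads counted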;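 also: 100 nL of 1 mM stock went into each well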
Mtb hypoxia rep: reduces hypoxia-regulated biosensor signal in M. tuberculosis | AID 1159583 | 300,000 tested, 0.1% active | M. tuberculosis hypoxia-regulated fluorescent reporter, fluorescence | fluorescence inhibition, % (concentration not given with the values);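 active = 35 to 45% if threefold the growth effect, above 45% if 1.5-fold the growth effect; inactive = the rest, general growth blockers included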;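 also: wells of about 50 µL received 100 nL stock; 0% = vehicle wells and 100% = reference inhibitor wells; whole bacteria with a GFP reporter of the hypoxia response; strong numbers were not always called active; many hits fall short of the cut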
BJeLR viability: BJeLR cell viability loss. BJeLR (HRASV12) viability, CellTiter-Glo ATP luminescence, 48 h; reference of the scale not given here. inhibition, % (concentration not given with the values). 300,000 tested, 0.17% active. AID 1554;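 active = replicate mean above 50%; inconclusive = above 50% but judged a plate artefact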;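 also: 50 nL library stock added to about 25 µL; numbers are from one replicate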
PrP UTR inh: suppresses PrP 5' UTR mRNA reporter expression. 340,000 tested, 0.35% active. inhibition, % (no concentration beside the values). cell-based PrP 5' UTR mRNA reporter, plate reader;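 active = every replicate at 50% or more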;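 also: 0 = median of the neutral control wells; tested in H4 reporter cells; numbers are from one replicate; inactives centre near -14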
ugtP null kill: kills S. aureus RN4220 lacking UgtP | 330,000 tested, 0.54% active | growth inhibition, % (concentration not given with the values) | S. aureus RN4220 ugtP deletion, OD600 growth, 16 h; some inactives read as strong as hits;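 active = z-score under -3 and OD600 up to 0.15 on both plates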;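 also: plate controls were untreated wells for no effect and antibiotic for full effect; wells of about 80 µL received 100 nL stock; the first replicate is given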
Mtb hypoxia rep growth: recorded beside Mtb hypoxia rep, whose call it bears; growth inhibition, %; measured here: M. tuberculosis growth (absorbance);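 0% = vehicle and 100% = reference antibiotic; read after six days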
Active calls of the source: *; ? = inconclusive; . = no result given; & = joins results of further samples; ! = a repeat was not active.

canonical_smiles,RN4220 kill,Autofluor counter,Mtb hypoxia rep,Mtb hypoxia rep growth,BJeLR viability,PrP UTR inh,ugtP null kill
O=C(NCc1ccc(F)cc1)c1ccc(S(=O)(=O)Nc2cccc(C(F)(F)F)c2)cc1,-4.6,2693,3,-2,-7,-19,-29
CCSc1cc(C2C(C#N)=C(N)OC(C)=C2C(=O)OC)c(C)o1 (stereo not given),3.0,4820,.,.,-3,-51,4
COc1ccc(N2CCN(Cc3cc(=O)c(OCC(=O)Nc4ccccc4)co3)CC2)cc1,1.5,?,7,7,10,-1,4
CCC(C)NC(=O)CN(c1ccc2c(c1)OCO2)S(=O)(=O)c1c(C)n[nH]c1C (stereo not given),-0.7,3974,.,.,3,-15,1
O=C(c1cc(-c2ccc(Cl)cc2)n(-c2ccc(Cl)cc2Cl)n1)N1CCOCC1,-3.7,.,10,2,-1,16,78
CC1CCC2(CC1)NC(=O)N(CC(=O)N1CCN(C(=O)c3cccs3)CC1)C2=O (stereo not given),3.3,4126,-3,-4,.,9,6
O=C(CCN1C(=O)/C(=C/c2ccc(F)cc2)SC1=S)Nc1cc([N+](=O)[O-])ccc1O,8.2,3421,-1,1,7,-30,4
Cc1ccc(/C=N/NC(=S)NC2CCS(=O)(=O)C2)cc1 (stereo not given),.,8944,.,.,-6,-10,.
O=C(CN1C(=O)NC2(CCOc3ccccc32)C1=O)c1ccc(Cl)s1 (stereo not given),-0.5,3703,2,7,.,-6,-1
CCCn1c(NN=C(C)/C=C/c2ccccc2)nc2c1c(=O)[nH]c(=O)n2C,2.2,.,-13,-1,.,.,3
O=C(CS(=O)(=O)c1ccccc1)Nc1nnc(-c2cccs2)o1,0.7,5493,8,1,1,-7,0
c1cnc2c(c1)ccc1cccnc12,1.6&-5.8,4499&5553,.,.,56*!,2&17,-5&6

canonical_smiles,RN4220 kill,Autofluor counter,Mtb hypoxia rep,Mtb hypoxia rep growth,BJeLR viability,PrP UTR inh,ugtP null kill
Cc1ccc(S(=O)(=O)Oc2ccc(C)cc2/C=N/N=C2\NC(=O)C(C)S2)cc1 (stereo not given),.,4665,.,.,-4,-49,.
COc1ccc(OC)c2sc(NC(=O)c3ccc(S(=O)(=O)N(C)C)cc3)nc12,-12,6425,-3,1,2,-5,-6
N=C(N)SCc1ccc(O)c([N+](=O)[O-])c1,2.5,4533,.,.,1,-18,8
CCC12CN3CCN(CC(C3)/C1=N\NC(=O)c1ccc(Cl)cc1)C2,.,4959,.,.,0,-14,.
COc1ccccc1-n1cnnc1SCC(=O)Nc1nc(C)c(Cl)cc1Cl,3.5,3543,8,10,-3,0,-11
CCCCNC(=O)N(O)C1N(/N=C/c2ccccc2O)C(=S)SC1(C)C (stereo not given),.,3860,.,.,-5,-16,.
CCCCNC(=O)N1CCN(Cc2cccc(F)c2)CC1,3.2,2283,24,19,0,-18,-6
CCCCS(=O)(=O)N1CCCC(C(=O)Oc2ccccc2OC)C1 (stereo not given),4.9,4431,13,4,-4,-20,6
CCS(=O)(=O)N1CCN(S(=O)(=O)c2ccc(Cl)s2)CC1,3.3,5090,14,7,3,4,-5
Cn1c(=O)cc(OCC(=O)Nc2ccccn2)c2ccccc21,7.0,15834,-6,-8,4,5,9
CCN(CC)c1ccc(N2C(=O)/C(=C\c3cccs3)SC2=S)cc1,1.7,2965,.,.,5,-22,-12
CCn1c(NCc2cc(OC)ccc2OC)nc2ccccc21,1.1,4042,6,9,2,-42,4

Among those listed so far, 2 have a nitro group on carbon:
canonical_smiles,RN4220 kill,Autofluor counter,Mtb hypoxia rep,Mtb hypoxia rep growth,BJeLR viability,PrP UTR inh,ugtP null kill
O=C(CCN1C(=O)/C(=C/c2ccc(F)cc2)SC1=S)Nc1cc([N+](=O)[O-])ccc1O,8.2,3421,-1,1,7,-30,4
N=C(N)SCc1ccc(O)c([N+](=O)[O-])c1,2.5,4533,.,.,1,-18,8

Going on with the list:
SMILES	RN4220 kill	Autofluor counter	Mtb hypoxia rep	Mtb hypoxia rep growth	BJeLR viability	PrP UTR inh	ugtP null kill
COc1ccc(Cl)cc1-n1c(C)cc(C(=O)OCC(=O)N2CC(=O)Nc3ccccc32)c1C	4.7	1948	4	6	2	-6	-2
c1ccc(CN2CCC3(CCCc4ccccc43)CC2)cc1	1.7	4667	.	.	.	-2	-9
Cc1ccc(C(=O)OCC(=O)Nc2ccc3c(c2)OCCO3)cc1C	1.3	6321	2	0	.	-75	4
COc1ccc(CN2C(=NC(=O)C3CCCO3)SC3CS(=O)(=O)CC32)cc1 (stereo not given)	1.2	5681	4	7	7	1	1
CC1CCN(C(=O)CCc2nnc3ccc(NCCCN4CCCC4=O)nn23)CC1	1.2	5432	-4	-9	-3	-7	0
CCc1sc(C(=O)N2CCc3cc(OC)c(OC)cc3C2CC(=O)O)cc1C (stereo not given)	6.9	8665	9	9	.	-17	5
Cc1cccc(OCC(O)CN2C(C)(C)CC(O)CC2(C)C)c1 (stereo not given)	-3.4	3078	15	8	2	-10	7
CCOC(=O)c1ccc2c(c1)nc(SCC(=O)N1CCCCC1)n2CC	5.1	2273	14	12	-3	-35	8
COc1cc2occc2c2oc(=O)ccc12	2.3	4317	10	9	3	-9	1
O=C(CN1CCN(S(=O)(=O)c2ccc(F)cc2)CC1)Nc1ccnn1C1CCCC1	2.7	4872	4	-9	.	-20	8

SMILES	RN4220 kill	Autofluor counter	Mtb hypoxia rep	Mtb hypoxia rep growth	BJeLR viability	PrP UTR inh	ugtP null kill
Cc1ccc(-c2noc(CCCN3C(=O)c4ccccc4C3=O)n2)cc1	2.6	?	1	6	2	-11	7
CC1CN(C(=O)COC(=O)c2cnc(Cl)c(Cl)c2)CC(C)O1 (stereo not given)	4.2	3826	15	5	.	-29	1
COc1ccc(NC(=S)Nc2ccccc2C(F)(F)F)cc1	2.1	3908	9	5	10	-45	-1
CCOc1ccc(NC(=O)CN(C)C(=O)c2ccc(OCC(=O)N3CCOCC3)c(OC)c2)cc1OCC	6.0	3847	10	1	.	-15	2
CC(O)/C=C/c1cccc[n+]1C (stereo not given)	3.2	5142	0	1	.	-30	5
S=C(Nc1ccc(Oc2ccccc2)cc1)N1CCN(c2ccccn2)CC1	-1.9	2477	-4	-7	3	-21	-20
CCc1cccc2sc(NC(=O)c3ccc(N4C(=O)CCC4=O)cc3)nc12	-6.5	5641	6	7	-9	2	-1
CC1CCCCN1CCCNC(=O)CN1C(=O)c2cccnc2Oc2ccccc21 (stereo not given)	-0.3	5167	0	4	-4	-20	-3
COC(=O)c1ccc(Oc2c(Cl)cccc2[N+](=O)[O-])cc1	0.0	4114	7	4	-3	-12	-10
Cc1ccnc(NC(=O)CCC(=O)c2cccs2)c1	3.4	7359	7	9	3	44	-2

SMILES	RN4220 kill	Autofluor counter	Mtb hypoxia rep	Mtb hypoxia rep growth	BJeLR viability	PrP UTR inh	ugtP null kill
O=C(Nc1ccc(-n2cccn2)cc1)C1CCCCN1Cc1cccc2cccnc12 (stereo not given)	-0.6	4919	12	21	-2	1	1
COc1ccc(-c2cn3ccccc3n2)cc1OC	-0.3	20804*	3	6	24	-19	-1
Cc1ccc(C)c(Cn2c(C(=O)O)c(C=O)c3ccccc32)c1	2.8	5145	5	2	11	-53	13
C=CCNC(=O)c1oc2ccc(S(=O)(=O)N3CCCCC3)cc2c1C	1.3	6104	-2	-5	1	4	0
O=C(c1cccc(S(=O)(=O)Nc2ccc(F)cc2)c1)N1CCCC1	2.4	.	2	-1	.	-18	2
C=CCNC(=O)CN1CCC(O)(c2ccc(F)cc2)CC1	4.3	7353	7	4	12	-92	5
Cc1ccc(S(=O)(=O)NCc2ccc(C(=O)NCCN(Cc3ccccc3)C(C)C)cc2)cc1	1.0	3388	9	0	4	-33	14
C=CCn1c(SCC(=O)Nc2ccc(-c3nc4ccc(C)cc4s3)cc2)nnc1-c1ccccc1	2.4	8309	-4	9	2	-115	-22
Cc1ccc(C(=O)CN2C(=O)NC3(CCOc4ccccc43)C2=O)s1 (stereo not given)	1.5	6011	-7	3	.	0	-4
Cc1cccc(CCN2C(N(C)C)=NC[C@@H]2C)c1	-10	3997	9	14	.	-14	-2

SMILES	RN4220 kill	Autofluor counter	Mtb hypoxia rep	Mtb hypoxia rep growth	BJeLR viability	PrP UTR inh	ugtP null kill
O=[N+]([O-])c1ccc(Sc2n[nH]c(-c3ccncc3)n2)nc1	7.9	3254	13	1	-2	-13	8
O=P(COCCO)(c1ccccc1)c1ccccc1	2.4	2476	.	.	1	-16	8
Cn1nc(C(=O)O)c(=O)n(C)c1=O	0.9	3906	4	6	.	-12	-2
CCCS(=O)(=O)N1CCc2ccc(NC(=O)C3CCCO3)cc2C1 (stereo not given)	6.0	5332	-5	5	0	-4	-4
CCN(C(=O)COC(=O)C1CCN(S(=O)(=O)c2ccc(C)c(C)c2)CC1)C1CCS(=O)(=O)C1 (stereo not given)	2.3	?	-1	-6	3	-6	4
COc1ccc(C(=O)Nc2ccc(S(=O)(=O)N3CCCCC3)cc2)cc1OC	-6.9	4235	.	.	11	-12	9
COc1cccc(/C=C/C(=O)OCC(=O)NCCC2=CCCCC2)c1OC	12	5572	11	3	.	-14	10
O=C(CNC(=O)c1cccs1)N/N=C/c1ccccc1[N+](=O)[O-]	.	2715	.	.	-6	-43	.
O=C(CN1CCCCCC1)Nc1cccc2c1OCO2	5.1	9079	0	0	10	-6	10
COc1ccc(/C=N/NC(=O)CSCC(=O)Nc2ccccc2)cc1OC	.	19130*	.	.	-4	-17	.

Four entries drawn at random from the list so far, as already listed:
SMILES	RN4220 kill	Autofluor counter	Mtb hypoxia rep	Mtb hypoxia rep growth	BJeLR viability	PrP UTR inh	ugtP null kill
O=C(CNC(=O)c1cccs1)N/N=C/c1ccccc1[N+](=O)[O-]	.	2715	.	.	-6	-43	.
CCCS(=O)(=O)N1CCc2ccc(NC(=O)C3CCCO3)cc2C1 (stereo not given)	6.0	5332	-5	5	0	-4	-4
COc1ccc(C(=O)Nc2ccc(S(=O)(=O)N3CCCCC3)cc2)cc1OC	-6.9	4235	.	.	11	-12	9
O=C(CN1CCCCCC1)Nc1cccc2c1OCO2	5.1	9079	0	0	10	-6	10

Further compounds follow.
SMILES	RN4220 kill	Autofluor counter	Mtb hypoxia rep	Mtb hypoxia rep growth	BJeLR viability	PrP UTR inh	ugtP null kill
O=C(CNc1ccccc1)NN=Cc1ccc([N+](=O)[O-])o1	35	.	5	11	.	.	35
COc1ccc(NC(=O)COc2ccc3oc(=O)cc(C)c3c2)cc1	2.2	3465	14	-1	13	-10	9
CCCCNC(=O)c1onc(CSc2ccncc2)c1C(=O)NCCCC	5.1	3596	18	6	6	-22	2
O=C(CCN1C(=O)c2ccccc2S1(=O)=O)Nc1ccccc1	0.6	2686	-3	5	11	-22	6
COCCOC(=O)/C(=C\c1cc(C(C)(C)C)c(O)c(C(C)(C)C)c1)C(C)=O	4.1	3619	-10	7	13	.	2
